AF4-AF9 inh: blocks AF4 peptide binding to human AF9 | 350,000 tested, 0.47% active | P42568 | AlphaScreen, biotin-AF4 peptide binding to FLAG-AF9 | inhibition, % at 10 µM;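 active = every replicate reaching a set inhibition limit, whatever the replicate mean, cut at about 25% in these data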;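 note: 0% = plate neutral control median and 100% = total signal loss; the record names both 10 and 1 µM as test concentration; the first replicate is given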
Target sequence (P42568 whole entry, looked up): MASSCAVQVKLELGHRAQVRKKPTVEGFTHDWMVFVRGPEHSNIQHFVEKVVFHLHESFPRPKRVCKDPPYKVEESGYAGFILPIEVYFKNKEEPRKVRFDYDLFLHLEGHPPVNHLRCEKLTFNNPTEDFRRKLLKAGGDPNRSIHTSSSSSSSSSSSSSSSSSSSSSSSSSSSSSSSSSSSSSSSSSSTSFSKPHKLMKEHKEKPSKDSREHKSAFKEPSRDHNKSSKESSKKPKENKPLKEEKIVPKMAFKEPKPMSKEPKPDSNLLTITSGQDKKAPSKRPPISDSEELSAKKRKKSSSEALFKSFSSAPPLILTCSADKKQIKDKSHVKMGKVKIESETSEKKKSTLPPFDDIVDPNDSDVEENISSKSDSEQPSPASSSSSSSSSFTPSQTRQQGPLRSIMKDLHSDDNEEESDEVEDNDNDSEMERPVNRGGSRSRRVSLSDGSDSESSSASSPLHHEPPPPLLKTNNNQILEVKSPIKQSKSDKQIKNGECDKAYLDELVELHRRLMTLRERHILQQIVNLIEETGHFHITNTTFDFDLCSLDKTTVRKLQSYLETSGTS
Ecoli rRNA inh: inhibits bacterial ribosomal RNA function over humanized ribosomes; E. coli WT GFP vs humanized-ribosome RFP mutants, fluorescence, 24 h; hits give low values; DMSO median 0, no signal -100; GFP signal change (wild-type ribosome), % (concentration not given with the values); 350,000 tested, 1.6% active;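 active = significant combined selectivity score with lowered wild-type GFP, culture density cut under 30%, mutant RFP and density less affected; inactive = any of these conditions unmet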; note: one replicate is shown; some compounds called inactive have numbers as strong as hits
Ecoli rRNA inh OD600: further read-out of Ecoli rRNA inh, marked with its call; OD600 change, %; measured here: OD600 growth;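 optical density of the mix in the first replicate; 0 = DMSO median and -100 = no signal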
Ecoli rRNA inh RFP: recorded beside Ecoli rRNA inh, whose call it bears; RFP signal change, %; measured here: RFP humanized mutant strains;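 first replicate; 0 = DMSO median and -100 = no signal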
* marks the source's active call; other numbers are inactive results; & = joins results of further samples. The list is partial; the hit share may differ from the screen's.

SMILES	AF4-AF9 inh	Ecoli rRNA inh	Ecoli rRNA inh OD600	Ecoli rRNA inh RFP
CC(C)NC(=O)N[C@@H]1C=C[C@@H](CC(=O)N2CCCCC2)O[C@@H]1CO	-1.6	1	6	0.1
O=C(NCC[C@H]1CC[C@H](NC(=O)C2CC2)[C@H](CO)O1)Nc1ccc(C(F)(F)F)cc1	6.3	-11&-62	-5&-78	-0.1&-23
CCN(C[C@H]1[C@@H](c2ccccc2)[C@H](CO)N1C(=O)COC)S(C)(=O)=O	-0.8	4	11	2.0
CCC(=O)N(C)C[C@H]1Oc2ncc(-c3ccc(C#N)cc3)cc2C(=O)N([C@H](C)CO)C[C@@H]1C	-1.2	2	10	-0.6
CCCCC[C@@H](C)N1C[C@@H](COCc2ccccc2)Oc2cc(N3CCC[C@H]3C(N)=O)ccc2S1(=O)=O	0.6	-1	-7	6.1
COC(=O)C1=CN(c2ccc(C(C)(C)C)cc2)C(N)=C(C#N)C1c1cccc2ccccc12 (configuration not stated)	-1.9	-16	-12	0.9
O=C(C1CCCCC1)N1C[C@H]2[C@@H](c3ccccc31)[C@H](CO)N2C(=O)Cc1ccccn1	0.9	1	-3	-0.1
COc1ccc(-c2ccc(CN3C(C(C)C)C(=O)N(Cc4cn(CCC5OCCCO5)nn4)CCS3(=O)=O)cc2)cc1OC (configuration not stated)	-0.9	-4	-1	-0.7
CCC(=O)Nc1ccc2c(c1)C(=O)N(C)[C@@H]1CC[C@H](CC(=O)NC3Cc4ccccc4C3)O[C@H]1CO2	-5.1	1	7	-0.8
COc1ccc(C(C)(O)c2nc(-c3cccc(C#N)c3)cs2)cc1 (configuration not stated)	-4.9	-20	-54	-8.8
O=C(Nc1ccc2ccccc2c1)C(c1ccccc1F)n1c(=O)c(-c2cc3ccccc3[nH]2)nc2ccccc21 (configuration not stated)	-28	13	18	1.8
C[C@@H]1CN([C@H](C)CO)C(=O)c2ccccc2-c2ccccc2CO[C@H]1CN(C)C(=O)Nc1ccc(-c2ccccc2)cc1	2.9	0	1	0.8
CCc1nc2c(OCc3ccccc3C(=O)OC)cccn2c1N(C)C(=O)c1ccncc1	1.7	2	13	1.0
CO[C@H]1CC[C@H]2CCOc3ccc(C#N)cc3C(=O)N(C)C[C@@H](OC)[C@H](C)C(=O)N(C)C[C@H]1O2	3.0	4	21	-9.8
O=[N+]([O-])c1cccc(S(=O)(=O)Nc2ccccn2)c1	1.0	6	22	-1.2

The final three records of the section above lead into the next.
SMILES	AF4-AF9 inh	Ecoli rRNA inh	Ecoli rRNA inh OD600	Ecoli rRNA inh RFP
CCc1nc2c(OCc3ccccc3C(=O)OC)cccn2c1N(C)C(=O)c1ccncc1	1.7	2	13	1.0
CO[C@H]1CC[C@H]2CCOc3ccc(C#N)cc3C(=O)N(C)C[C@@H](OC)[C@H](C)C(=O)N(C)C[C@H]1O2	3.0	4	21	-9.8
O=[N+]([O-])c1cccc(S(=O)(=O)Nc2ccccn2)c1	1.0	6	22	-1.2
CO[C@H]1CN(C)C(=O)c2cc(NS(=O)(=O)c3ccccc3)ccc2OC[C@H](C)N(Cc2nccs2)C[C@H]1C	0.2	-2	-5	-0.9
C[C@H](CO)N1C[C@H](C)[C@H](CN(C)Cc2ccc(Cl)c(Cl)c2)Oc2ccc(NC(=O)Nc3ccc(C(F)(F)F)cc3)cc2C1=O	1.1	2	11	1.4
C[C@H](CO)N1C[C@H](C)[C@H](CN(C)C(=O)Nc2ccc(F)cc2)OCCCC[C@H](C)Oc2ccc(NC(=O)c3ccncc3)cc2C1=O	-0.9	0	0	-1.4
Cc1cccc(-c2ccc([C@H]3[C@H]4CN(C(=O)c5cccnc5)CCCCN4[C@H]3CO)cc2)c1	26*	2	-25	5.1
CCOC(=O)[C@@H]1CSCCS(=O)(=O)N1Cc1ccccc1Br	-0.3	-33	-36	-6.6
CC(C)NC(=O)Nc1ccc2c(c1)CC(=O)N([C@@H](C)CO)C[C@@H](C)[C@H](CN(C)Cc1ccc3c(c1)OCO3)O2	4.8	2	-18	-1.3
C[C@H](CO)N1C[C@H](C)[C@@H](CN(C)S(=O)(=O)c2cn(C)cn2)Oc2ccc(NC(=O)Nc3ccc(C(F)(F)F)cc3)cc2CC1=O	-0.6	5	13	4.2
COc1cccc(S(=O)(=O)N(C)C[C@H]2Oc3cc(C#CCC(C)C)ccc3S(=O)(=O)N([C@@H](C)CO)C[C@H]2C)c1	-2.7	3	3	3.0
O=C(C1CCC1)N1CC2(C1)[C@H](c1ccccc1)[C@H](CO)N2C(=O)NC1CCCC1	-11	5	2	0.4
Oc1ccc(C[C@H]2CN([C@@H](Cc3cccc(O)c3)CN3CCC[C@@H]3CN3C(=S)NC[C@@H]3Cc3ccccc3)C(=S)N2CC2CCCCC2)cc1	-0.6	11	19	11
C[C@@H]1CN([C@@H](C)CO)C(=O)Cc2cc(NC(=O)Nc3cccc4ccccc34)ccc2O[C@@H]1CN(C)C(=O)Nc1ccc(F)cc1	1.9	-3	-3	0.5
CO[C@H]1CN(C)C(=O)c2ccc(NS(=O)(=O)c3cn(C)cn3)cc2OC[C@@H](C)NC[C@@H]1C	-8.9	4	4	-2.8
O=C(C[C@@H]1C[C@@H]2c3cc(NC(=O)c4ccc5c(c4)OCO5)ccc3O[C@@H]2[C@@H](CO)O1)NCc1cccc(F)c1	-7.4	-5	-19	-0.4
COc1ccc(S(=O)(=O)N(C)C[C@@H]2OCCCC[C@H](C)Oc3ccc(NC(=O)Nc4ccc(F)cc4)cc3C(=O)N([C@H](C)CO)C[C@H]2C)cc1	2.3	1	8	-3.5
CCC(=O)N1[C@H](CO)[C@H](c2ccc(-c3ccccc3)cc2)[C@H]1CNC(=O)C1CC1	-1.8	-3	-1	-2.8

Brought forward from above: 2 compounds, followed by the next part.
SMILES	AF4-AF9 inh	Ecoli rRNA inh	Ecoli rRNA inh OD600	Ecoli rRNA inh RFP
COc1ccc(S(=O)(=O)N(C)C[C@@H]2OCCCC[C@H](C)Oc3ccc(NC(=O)Nc4ccc(F)cc4)cc3C(=O)N([C@H](C)CO)C[C@H]2C)cc1	2.3	1	8	-3.5
CCC(=O)N1[C@H](CO)[C@H](c2ccc(-c3ccccc3)cc2)[C@H]1CNC(=O)C1CC1	-1.8	-3	-1	-2.8
CS(=O)(=O)N1CC(=O)N2[C@H](C1)[C@@H](c1ccc(C#CC3CCCC3)cc1)[C@@H]2CO	3.8	1	-18	17
COc1ccccc1S(=O)(=O)N(C)C[C@@H]1Oc2ncc(-c3ccc(C)cc3)cc2C(=O)N([C@@H](C)CO)C[C@H]1C	3.3	-5	-24	11
CCCNC(=O)[C@@H]1[C@@H](CO)[C@@H]2Cn3c(ccc(C4=CCCC4)c3=O)[C@@H]2N1C(=O)CC1CC1	-0.2	2	8	-0.8
C[C@H]1[C@H](c2ccccc2)Oc2cccc(NCCc3ccccc3)c2S(=O)(=O)N1Cc1cccc(Cl)c1	-1.1	13	10	3.6
CC(C)NC(=O)Nc1ccc2c(c1)CC(=O)N([C@H](C)CO)C[C@@H](C)[C@H](CN(C)C(=O)Nc1ccc3c(c1)OCO3)O2	-3.3	4	-2	0.3
COc1ccc(NC(=O)N(C)C[C@@H]2OCCCC[C@H](C)Oc3ccc(NC(=O)Nc4ccc5c(c4)OCO5)cc3C(=O)N([C@H](C)CO)C[C@@H]2C)cc1	1.7	-1	1	-2.1
CC(C)NC(=O)N(C)C[C@H]1Oc2cc(C3=CCCCC3)ccc2S(=O)(=O)N([C@H](C)CO)C[C@@H]1C	3.0	-3	-12	1.4
CCN1[C@H](C(=O)NCc2ccccc2)[C@@H](CO)[C@@H]2Cn3c(ccc(-c4ccccc4)c3=O)[C@@H]21	-1.1	-5	-1	4.3
CCCN(C)C[C@H]1OCCCC[C@H](C)Oc2ccc(NS(=O)(=O)c3ccc(Cl)cc3)cc2C(=O)N([C@H](C)CO)C[C@H]1C	0.8	6	-5	2.0
COc1ccccc1CN1C[C@@H](C)[C@H](OC)CN(C)C(=O)c2cc(NC(C)=O)ccc2OC[C@@H]1C	0.6	4	4	0.3
CO[C@@H](CN(C)Cc1cc(F)ccc1F)[C@H](C)CN(C(=O)Nc1ccc(C(F)(F)F)cc1)[C@H](C)CO	1.5	-58	-83	-18
CCCNC(=O)N(C)C[C@H]1Oc2ncc(C#CC3CCCCC3)cc2C(=O)N([C@@H](C)CO)C[C@H]1C	0.7	4	4	1.4
C[C@H]1CCCCO[C@H](CN(C)C(=O)Nc2ccccc2)[C@@H](C)CN([C@@H](C)CO)C(=O)c2cc(NC(=O)Nc3ccc(C(F)(F)F)cc3)ccc2O1	-4.8	5	-2	0.4
C[C@H]1CN([C@@H](C)CO)C(=O)c2cccc(NC(=O)CCCCCC(=O)Nc3ccccc3N)c2O[C@@H]1CN(C)Cc1ccc(Oc2ccccc2)cc1	-0.3	5	-4	0.6
COc1cc(C)ccc1S(=O)(=O)NC(=O)Cn1nnc(COc2ccc3c(c2)CCCC3)c1C	-3.9	-11	-25	0.9
C[C@@H](NC(=O)C[C@@H]1CC[C@H]2[C@@H](COC[C@H](O)CN2C(=O)Nc2cccc(F)c2)O1)c1ccccc1	-1.4	3	14	-1.8
COc1ccc(-c2sc(Nc3cccc4ccccc34)n[n+]2C)c(C)c1C	-13	6	10	2.7
Cc1noc(C)c1NC(=O)N(C)C[C@@H]1OCCCC[C@@H](C)Oc2ccc(NC(=O)CCC(F)(F)F)cc2C(=O)N([C@H](C)CO)C[C@@H]1C	-3.6	3	12	1.1
CC(C)CC#Cc1ccc2c(c1)O[C@@H](CN(C)C(=O)CN(C)C)[C@H](C)CN([C@@H](C)CO)S2(=O)=O	3.2	0	-1	-3.4
COc1cccc(S(=O)(=O)Nc2ccc3c(c2)[C@H]2C[C@@H](CC(=O)NCCc4ccccc4)O[C@@H](CO)[C@H]2O3)c1	-0.6	-5	-11	2.3
COc1ccccc1-c1cc2nc(NCCOc3ccccc3)ccn2n1	-2.6	-2	-38	-1.1
Cc1ccc(S(=O)(=O)N(C)C[C@@H]2OCCCC[C@H](C)Oc3ccc(NS(C)(=O)=O)cc3C(=O)N([C@H](C)CO)C[C@@H]2C)cc1	1.4	-2	-11	-2.7
OC(c1ccccc1)(c1nc(/C=C/c2ccc(C(F)(F)F)cc2)cs1)C(F)(F)F (configuration not stated)	8.5	5	1	-2.7
Cc1noc(C)c1S(=O)(=O)Nc1ccc2c(c1)C(=O)N([C@H](C)CO)C[C@@H](C)[C@H](CN(C)Cc1ccc(C(=O)O)cc1)O2	-0.9	-1	2	-2.8
COc1ccc(NC(=O)N(C)C[C@H]2OCCCC[C@H](C)Oc3ccc(NC(=O)NC4CCCCC4)cc3C(=O)N([C@H](C)CO)C[C@@H]2C)cc1	1.8	-3	1	-1.1
CN(C)C(=O)c1cccc(-c2ccc([C@@H]3[C@H](C#N)N(C(=O)C4CC4)[C@H]3CO)cc2)c1	-1.1	1	3	1.8
C[C@@H]1CCCCO[C@H](CN(C)Cc2ccccc2)[C@H](C)CN([C@H](C)CO)C(=O)c2cc(NS(=O)(=O)c3ccc(Cl)cc3)ccc2O1	12	-15	-52	31
O=C(NC(c1ccc2c(c1)OCO2)c1ccccn1)C1CCN(CCOc2ccccc2)CC1 (configuration not stated)	0.7	16	19	-2.9
O=C(C[C@@H]1CC[C@@H]2[C@H](COC[C@H](O)CN2C(=O)c2ccccn2)O1)NC1CCC1	-0.7	3	12	-2.0
CCCC(=O)Nc1ccc2c(c1)OC[C@@H](C)N(S(=O)(=O)c1cn(C)cn1)C[C@@H](C)[C@H](OC)CN(C)C2=O	-0.1	6	8	-3.2
C/C=C/c1ccc([C@@H]2[C@H](CO)N(Cc3ccccn3)[C@H]2CNC(=O)CC)cc1	-0.2	0	0	-0.5
C[C@H]1CCCCO[C@H](CN(C)C(=O)Nc2ccc(C(F)(F)F)cc2)[C@@H](C)CN([C@@H](C)CO)C(=O)c2cc(NC(=O)c3ccccc3)ccc2O1	-12	3	16	3.5
O=C(Nc1cccc(F)c1)N[C@H]1CC[C@@H](CCn2cc(Cc3ccccc3)nn2)O[C@@H]1CO	0.1	-4	-5	0.2
COc1ccc(NC(=O)Nc2ccc3c(c2)C(=O)N([C@H](C)CO)C[C@H](C)[C@H](CN(C)C)OCCCC[C@H](C)O3)cc1	9.2	1	9	0.3
O=C(NCc1ccncc1)[C@@H]1CCCN1C(=O)[C@@H]1CCCN1	-0.6	1	22	0.0
C[C@H]1CN([C@@H](C)CO)C(=O)c2cc(C#CC3CCCCC3)cnc2O[C@@H]1CN(C)C(=O)NC1CCCC1	1.1	-1	-23	4.9
CO[C@@H]1CN(C)C(=O)c2ccc(NS(=O)(=O)c3ccc(Cl)cc3)cc2OC[C@H](C)N(C)C[C@@H]1C	-0.8	2	4	-1.0
CCCN1[C@@H]2c3ccc(-c4ccccc4F)c(=O)n3C[C@H]1[C@H](CO)[C@H]2C(=O)NCC	-3.6	1	8	-1.7
CCCNC(=O)N1CCC2(CC1)CN(C(=O)CC1CC1)[C@@H](CO)c1[nH]c3cc(OC)ccc3c12	-12	-2	0	-4.6

Retrieved by structure from the entries so far (two):
SMILES	AF4-AF9 inh	Ecoli rRNA inh	Ecoli rRNA inh OD600	Ecoli rRNA inh RFP
O=C(NCc1ccncc1)[C@@H]1CCCN1C(=O)[C@@H]1CCCN1	-0.6	1	22	0.0
O=C(Nc1cccc(F)c1)N[C@H]1CC[C@@H](CCn2cc(Cc3ccccc3)nn2)O[C@@H]1CO	0.1	-4	-5	0.2
